Screening data from PubChem.
Vaccinia Venus – vaccinia inhibition (Venus reporter) | AID 720580 | 330,000 compounds, 0.46% hits | Vaccinia virus Venus reporter expression, fluorescence | Potency, µM (doses to about 36.5 µM), for the others: at the highest dose activity change, negative = inhibition, actives largely listed as inhibitors; active means well fitted inhibition curve with a large enough effect; inconclusive means small, poorly fitted or top-dose-only effect; inactive means no such curve, though single readings can be large or run the other way; tested in A549 cells; note: nearly all actives have a fitted effect of over 30% in size; inactives centre near -10
Vaccinia mCherry – vaccinia inhibition (mCherry reporter). Potency, µM (top dose mostly 36.5 µM), without a hit: at the highest dose activity change, negative = inhibition, actives largely listed as inhibitors. AID 720579. 310,000 compounds, 0.63% hits. Vaccinia virus mCherry reporter infection, fluorescence; about a quarter of the inactives have no number; active = well fitted inhibition curve with a large enough effect; inconclusive = small, poorly fitted or top-dose-only effect; inactive = no such curve, though single readings can be large or run the other way; tested in A549 cells; note: nearly all actives have a fitted effect of over 35% in size; inactives centre near -10
* = called active by the depositor; i = inactive; ? = inconclusive; nt = no result given; [ ] = another dose, or the depositor's remark. % is set by controls: 0 for no effect and ±100 for the full control effect; potency is the fitted concentration of half-maximal effect.

Each structure is followed by: Vaccinia Venus	Vaccinia mCherry
COc1cc(-c2cc(C(=O)N(C)Cc3ccccc3)c3ccccc3n2)cc(OC)c1OC
→ -21%	?
CCOc1ccc(OCC)c(NC(=O)c2cnn(-c3ccc(F)cc3)c2C2CCN(C(=O)OC(C)(C)C)CC2)c1
→ -25%	-19%
COc1ccccc1C(CC(=O)Nc1ccc(C)c(C)c1)c1ccc(OC(C)C)cc1 (configuration not stated)
→ -4%	-16%
COC(=O)COc1ccc(S(=O)(=O)N2CCc3ccccc3C2)cc1
→ -1%	-12%
Cn1c(=O)c2c(n(C)c1=O)=NC1(CCCCC1)ON=2
→ -9%	-21%
CC(=O)CN1C(=O)NC2(CCCc3ccccc32)C1=O (configuration not stated)
→ -8%	-11%
Cc1nnc(Sc2cc(C(=O)NCc3ccco3)c3ccccc3n2)s1
→ -26%	i
Cc1ccc(C(=O)N2c3ccccc3NC(=O)C2C)cc1 (configuration not stated)
→ -6%	-14%
CCCCN1C(=O)C(CC(=O)NCc2cccs2)CC(C(=O)N(C)C)=C1C (configuration not stated)
→ -14%	i
CC1CCN(c2nc3ccccc3nc2C(F)(F)F)CC1
→ 0%	7%
CCOc1nc(SC(C(C)=O)C(=O)Nc2ccccc2)nc(N(C)C)n1 (configuration not stated)
→ -19%	nt
COc1ccc(-n2nnnc2C(c2cccc(OC)c2OC)N2CCC(n3c(=O)[nH]c4ccccc43)CC2)cc1 (configuration not stated)
→ -13%	3%
O=C1OC(c2ccccc2)=N/C1=C\C=C\c1ccco1
→ -7%	i
COc1ccc(-c2ccc(NS(=O)(=O)c3ccc(F)c(C(F)(F)F)c3)cc2)nn1
→ -10%	-11%
CCN(CCC(=O)Nc1cc([N+](=O)[O-])ccc1OC)Cc1ccccc1
→ -6%	-9%
Cc1nc2ccc(NC(=O)COc3ccccc3C)cc2s1
→ 5%	-1%
CC(C)C[C@H](N)c1nnc(SCC(=O)Nc2ccc(Br)cc2)o1
→ -10%	-15%
Cc1cc2ncn(C(=O)c3c(-c4c(Cl)cccc4Cl)noc3C)c2cc1C
→ ?	?
COc1cccc(NC(=O)c2ccc(N3C(=O)C4CCC(C)CC4C3=O)cc2)c1 (configuration not stated)
→ -21%	i
COc1ccc(CCN/C=C2/CC(=O)NC2=O)cc1OC
→ -8%	?

Continued, overlapping the part above by six compounds.
Each structure is followed by: Vaccinia Venus	Vaccinia mCherry
CCN(CCC(=O)Nc1cc([N+](=O)[O-])ccc1OC)Cc1ccccc1
→ -6%	-9%
Cc1nc2ccc(NC(=O)COc3ccccc3C)cc2s1
→ 5%	-1%
CC(C)C[C@H](N)c1nnc(SCC(=O)Nc2ccc(Br)cc2)o1
→ -10%	-15%
Cc1cc2ncn(C(=O)c3c(-c4c(Cl)cccc4Cl)noc3C)c2cc1C
→ ?	?
COc1cccc(NC(=O)c2ccc(N3C(=O)C4CCC(C)CC4C3=O)cc2)c1 (configuration not stated)
→ -21%	i
COc1ccc(CCN/C=C2/CC(=O)NC2=O)cc1OC
→ -8%	?
COc1ccc(NC(=O)CS(=O)CC(=O)Nc2ccc(NC(C)=O)cc2)cc1 (configuration not stated)
→ -19%	-5%
Cc1cc2n(n1)C(c1cc(C(C)(C)C)c(O)cc1O)Nc1ccccc1-2 (configuration not stated)
→ -23%	-13%
CCC(C)Nc1nc2c(c(=O)n(C)c(=O)n2C)n1Cc1cccc(C)c1 (configuration not stated)
→ 3%	nt
CN(C)c1ccc(/C=C/c2ccnc3c(-c4ccccc4)cccc23)cc1
→ -22%	-4%
CC(C)CN(C)c1ccc(/C=C2\C=Cc3ccccc32)cc1
→ -28%	-29%
Cc1ccc(S(=O)(=O)N(C)CCN(C)S(=O)(=O)c2ccc(C)cc2)cc1
→ -16%	i
O=C(O)c1cn(-c2ccc(F)cc2)c(=O)c2ccccc12
→ -1%	i
CCOC(=O)c1[nH]c2cc(OC)c(OC)cc2c1NC(=O)C(C)N1CCN(Cc2ccccc2)CC1 (configuration not stated)
→ ?	?
Cc1ccc(C)c(NC(=O)Cc2csc(-c3ccccc3)n2)c1
→ -6%	-16%
O=C(CN1C(=O)c2ccccc2C1=O)NC1CCCCC1
→ 3%	-20%
COCCNC(=O)c1onc(CSc2ccccn2)c1C(=O)NCCOC
→ -13%	i
COc1ccc(-n2c(=O)[nH]cc(C(=O)N3CCc4ccccc43)c2=O)cc1
→ -10%	-21%
Cc1ccccc1CNS(=O)(=O)c1csc(C(N)=O)c1
→ -5%	-10%
O=C(NCC1CCCCC1)C1CCC(=O)N(CCc2cccc(F)c2)C1 (configuration not stated)
→ -11%	i
COc1ccccc1C(=O)Nc1nc2ccc(S(C)(=O)=O)cc2s1
→ -4%	-19%
COc1cc2cc(C#N)c(SCC(=O)OC(C)C)nc2cc1OC
→ -14%	-9%
Cc1ccc(-n2c(CCc3nc4ccccc4[nH]3)n[nH]c2=S)cc1
→ -19%	i
CCN(CC(=O)NCc1ccncc1)S(=O)(=O)c1ccccc1
→ 5%	63%[activator]
COc1cc(OC)cc(C(=O)Nc2nc(-c3nnn(-c4ccc(C)cc4)c3C)ns2)c1
→ ?	?
COc1ccc(NCN2C(=O)C3C4C=CC(C4)C3C2=O)cc1 (configuration not stated)
→ -10%	-14%
O=C(O)C1CCCN1C(=O)c1cccs1 (configuration not stated)
→ -7%	-12%
COc1ccc2cc3cc(C(=O)NCC4COc5ccccc5O4)oc3nc2c1 (configuration not stated)
→ -25%	i
O=C(N/N=C\c1ccc(-c2ccc([N+](=O)[O-])cc2)o1)C1COc2ccccc2O1 (configuration not stated)
→ -13%	-22%
C[C@@H]1CN([C@@H](C)CO)C(=O)c2cc(NC(=O)C3CC3)ccc2O[C@@H]1CN(C)C(=O)NC1CCCCC1
→ -6%	-5%
CC(/C=C1\SC(=S)N(NS(=O)(=O)c2ccccc2)C1=O)=C\c1ccccc1
→ 18%	i
COC1C(CO)OC(n2cnc3c(=S)nc(N)[nH]c32)C1O (configuration not stated)
→ 0%	-12%
O=C(Nc1ccccc1)OCCNC(=O)c1cccc(Br)c1
→ -7%	-13%
Oc1ccc(CCNc2c3ccccc3nc3ccccc23)cc1O
→ ?	?
CC(C)C[C@@H](CNCC(=O)[C@H](CC(=O)O)NC(=O)c1[nH]cnc1C(=O)N[C@H](CN)CC(C)C)NC(=O)c1nc[nH]c1C(=O)N[C@@H](Cc1ccccc1)C(=O)O
→ 4%	-10%
COc1cc(OC)c(NC(=O)Cn2nc(C)n3cccc3c2=O)cc1Cl
→ -8%	-8%
O=C(O)C1CCCCN1c1ccccc1[N+](=O)[O-] (configuration not stated)
→ 3%	1%
O=C(O)CCCCCN=Cc1c(O)c2ccccc2oc1=O
→ -5%	-3%
O=C(CN1C(=O)COc2ccc(S(=O)(=O)N3CCOCC3)cc21)Nc1ccc(F)c(Cl)c1
→ -4%	-2%
COc1cccc(NC(=O)c2ccc(-c3nc(COc4ccccc4)c(C)o3)cc2)c1
→ -22%	-21%
Cc1oc2ccc(O)c(CN3CCCCC3C)c2c1C(=O)Nc1ccccc1 (configuration not stated)
→ -8%	-11%
CCN(CC)C(=O)Cn1c(=O)cc(C)c2c(C)nn(C)c21
→ -2%	-9%
O=C(Nc1cccs1)Nc1cc(C(F)(F)F)ccc1Cl
→ -25%	-24%
C=CC(COCc1ccccc1)N(Cc1ccccc1)S(=O)(=O)c1ccccc1Br (configuration not stated)
→ -1%	-4%
O=C(CCCCCNc1nc(=S)[nH]c2ccccc12)NCCc1ccc(Cl)cc1
→ -2%	i
COc1ccc(NCc2nnc(SCC(=O)Nc3nc(-c4ccccc4)cs3)n2-c2ccccc2)cc1
→ -22%	i

Whole records as entered above. Screens in order: Vaccinia Venus | Vaccinia mCherry
`O=C(Nc1cccs1)Nc1cc(C(F)(F)F)ccc1Cl` in the list: -25% | -24%
`CCN(CC)C(=O)Cn1c(=O)cc(C)c2c(C)nn(C)c21` in the list: -2% | -9%
`C=CC(COCc1ccccc1)N(Cc1ccccc1)S(=O)(=O)c1ccccc1Br` (configuration not stated) in the list: -1% | -4%

Other results
Each structure is followed by: Vaccinia Venus	Vaccinia mCherry
COc1ccc(NC(=O)CN(C)C(=O)c2ccc(NS(=O)(=O)c3ccc(C)c([N+](=O)[O-])c3)cc2)cc1
→ -7%	-19%
Cc1cccc(N(C)C(=O)CCS(=O)(=O)c2cc3c(cc2Cl)NC(=O)CO3)c1
→ -11%	-2%
NNC(N)=O
→ -1%	i
NNC(=O)C1=NOC(CNc2ncc(C(F)(F)F)cc2Cl)C1 (configuration not stated)
→ -18%	nt
COc1ccc(CNC(=O)Cc2c(C)c3c(cc(C)c4c(C)c(C)oc43)oc2=O)cc1
→ -10%	-16%
Cc1ccc(S(=O)(=O)NN=C2C3CC4CC(C3)CC2C4)cc1[N+](=O)[O-]
→ -15%	-10%
O=C(N/N=C/c1sc(N2CCOCC2)nc1-c1ccccc1)c1cccc(S(=O)(=O)N2CCCC2)c1
→ ?	?
O=C(COC(=O)COc1ccc(Br)cc1)NC1CCCC1
→ -8%	i
CCc1ccc(OCC(=O)Nc2c(C(=O)c3ccccc3)oc3ccccc23)cc1
→ -4%	-8%
C/C(=N\NC(=O)c1cc(-c2ccc(O)cc2)nc2ccccc12)c1cccnc1
→ -16%	i

(further entries)
Molecule	Vaccinia Venus	Vaccinia mCherry
O=C(NC(=S)NNC(=O)c1ccccc1[N+](=O)[O-])c1ccc(Br)cc1	-11%	?
COCCNc1nc(Nc2ccc(Cl)cc2F)c2sccc2n1	-28%	-28%
Cc1cc2nc(CSc3ccc(Cl)cc3)cc(=O)n2[nH]1	-8%	-4%
Cc1cccc(N2CCN(C(=O)CCNS(=O)(=O)c3ccc4c(c3)oc(=O)n4C)CC2)c1C	?	?
Cc1ccc(CNC(=O)CSc2ncc(C(=O)Nc3ccccc3)c(=O)n2C)cc1	-13%	-8%
Cc1ccc(-c2cc3nccc(-c4cc([N+](=O)[O-])ccc4O)n3n2)cc1	-11%	-21%
Cc1ccc(C(=O)N/N=C\c2ccncc2)s1	-17%	i
S=C1NCCOCCOCCOCCN1	17%	nt
CCc1ccc(-c2nc(CSCC(=O)NCc3ccco3)c(C)o2)cc1	-5%	i
COc1ccc(-c2nc(Cn3c(SCc4ccccc4F)nc4ccncc43)c(C)o2)cc1	?	i
Nc1c(C(=O)NCc2ccco2)c2nc3ccccc3nc2n1Cc1ccc(F)cc1	-5%	i
CC(=O)N1CCc2c(sc(NC(=O)CN3C(=O)CCC3=O)c2C(N)=O)C1	-8%	i
Cc1cc(C)nc(-n2nc(C)cc2NC(=O)CN2CCc3ccccc3C2)n1	-1%	-17%
CCCN1C(=O)/C(=N\OCC(=O)NCC(F)(F)F)c2ccccc21	0%	i
Cc1cc2nc(-c3ccc(SCC(=O)Nc4ccc5c(c4)OCCO5)nc3)[nH]c2cc1C	-12%	i
Cc1onc(-c2ccccc2)c1C(=O)Nc1cccnc1	-5%	-1%
Cc1ccc(C)n1-c1nn(S(=O)(=O)c2cccc3cccnc23)c2cccc(F)c12	-16%[7.34 µM]	i[7.34 µM]
Cc1cc(C)cc(C(=O)Nc2ccc(-c3cn4cccnc4n3)cc2)c1	?	-21%
CCOC(=O)c1ccc2c(c1)nc(SC/C(O)=C(\C#N)c1nc3ccccc3[nH]1)n2CC	1%	-9%
COc1ccc(CCNC(=O)C2CCCN(S(=O)(=O)c3ccccc3)C2)cc1 (configuration not stated)	-15%	-5%
CCc1ccc(NC(=O)COC(=O)CC2CCCC2)cc1	2%	-16%
CCSc1nnc2c(n1)OC(CC)N(C(C)=O)c1ccccc1-2 (configuration not stated)	5%	-3%
CC(C)CCN1CCC(n2nccc2NC(=O)c2ccc3c(c2)OCO3)CC1	-13%	i
COc1ccc(OC)c(NC(=O)C2C(C(=O)O)C3(Cl)C(Cl)=C(Cl)C2(Cl)C3(Cl)Cl)c1 (configuration not stated)	2%	-13%
COc1ccc(CCNC(=O)CCCCC(=O)NCCc2ccc(OC)c(OC)c2)cc1OC	10%	-28%
O=C(C[N+]1(CCO)CCOCC1)c1ccc2ccccc2c1	-10%	33%[activator]
O=S(=O)(c1ccc(NC(=S)NCc2ccco2)cc1)N1CCCC1	-15%	-8%
Cc1csc(=O)n1CCC(=O)OCC(=O)NNC(=O)c1ccccc1	-12%	-1%
Cc1ccccc1NC(=O)/C(=C/c1ccccc1)c1ccccc1	-17%	-1%[1.46 µM]
Cc1cc(C)n(CC2CC(=O)N(c3ccc(Cl)c(Cl)c3)C2=O)n1 (configuration not stated)	-5%	-21%
Cc1cc(C)cc(NC(=O)C2CCCN(C(=O)c3cnn(-c4ccccc4)c3-n3cccc3)C2)c1 (configuration not stated)	-18%	-28%
CC1CCN(C(=O)CSc2nc(=O)n3ccccc3n2)CC1	-5%	-12%
COc1ccc(OC)c(NC(=O)c2cc3c(=O)n4ccccc4nc3n2C)c1	-2%	-13%
CSc1cc(-c2ccccc2)n(Cc2c(Cl)cccc2Cl)c(=O)c1C#N	-18%	nt
CCc1ccccc1NC(=O)CN1CCN(C(=O)CNC(=O)c2ccc(N3CCCC3=O)cc2)CC1	-2%	i
O=C(Cc1ccccc1)c1nc2ccccc2s1	6%	-7%
CCc1ccc(C(=O)OCC(=O)NC2CCCC2)cc1	-6%	-6%
CCC(CO)Oc1cc(NCc2cccnc2)c2ncn(C(C)C)c2c1 (configuration not stated)	-27%	-9%
Cc1ccccc1Nc1nc(N)nc(COC(=O)c2nn(C)c(=O)c3ccccc23)n1	-7%	-15%

The order is random; overall some 0.86% were active at least once.
